Cruzain noTriton = inhibitors of Trypanosoma cruzi cruzain without detergent; AID 1476; 200,000 compounds, 2.3% hits; Potency, µM, for the others: max response, negative = inhibition, hits mostly inhibitors; purified cruzain, Z-FR-AMC fluorescence, no detergent; P25779; active means well fitted curve in the direction sought with a large enough effect; inconclusive means small, poorly fitted or top-dose-only effect, or another doubt; inactive means no such curve, though single readings can be large; an effect the other way counts as inactive or inconclusive;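 further: plate controls were enzyme without inhibitor for no effect and buffer without enzyme for full effect; nearly all actives have a fitted effect of over 40% in size; top concentration of the series not given in the record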
Target sequence (P25779 123-467 limits assumed): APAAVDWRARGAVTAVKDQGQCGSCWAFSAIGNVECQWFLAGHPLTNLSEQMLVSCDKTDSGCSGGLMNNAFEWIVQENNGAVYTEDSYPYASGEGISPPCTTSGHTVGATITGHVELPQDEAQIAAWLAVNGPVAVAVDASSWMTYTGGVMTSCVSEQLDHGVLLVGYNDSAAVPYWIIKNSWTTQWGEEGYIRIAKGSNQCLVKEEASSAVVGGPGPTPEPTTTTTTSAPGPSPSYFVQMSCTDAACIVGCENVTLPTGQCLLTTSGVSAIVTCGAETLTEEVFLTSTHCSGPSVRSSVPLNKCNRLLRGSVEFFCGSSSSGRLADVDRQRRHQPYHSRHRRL
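Detergent-free condition (0.00005% Triton X-100) in acetate buffer pH 5.5 with DTT. 1.5 nM enzyme and compound were pre-mixed 15 min, then 2 uM Z-FR-AMC substrate added; reaction progress from fluorescence change between first and third reads (60 s).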
NS1 function inh = blocks influenza NS1 protein function. S. cerevisiae slowed by influenza A NS1, growth recovery by OD600. Potency, µM (titrated, usually from 46.1 µM), for inactives: at the highest dose activity, positive = more growth. 270,000 compounds, 0.4% hits; further: actives are rising curves; nearly all actives have a fitted effect of over 50% in size
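Read-out: OD600 growth recovery of NS1-expressing budding yeast. Cells grown overnight at 30C in -URA glucose medium, washed, resuspended and diluted 1:100 in 2% galactose assay medium, pH 6.0. Same strain lacking NS1 served as positive control.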
RE007 growth inh = less growth of the S. pombe RE007 Vpr strain | S. pombe RE007 Vpr strain, BacTiter-Glo ATP luminescence, 24 h; control for the full effect not named in the record | Potency, µM (top dose mostly 92.2 µM), for the others: top-dose activity change, negative = less growth | 360,000 compounds, 0.21% hits | AID 651644; active = well fitted falling curve with a large enough effect; inconclusive = small, poorly fitted or top-dose-only effect; inactive = no such curve, though single readings can be large or run the other way;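 further: on the % scale 0 is the no-effect control and ±100 the full control effect; nearly all actives have a fitted effect of over 50% in size; the assay follows cell death caused by Vpr and the record does not say whether a fall means rescue or toxicity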
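Fission yeast strain RE007, carrying one chromosomally integrated HIV-1 vpr copy, was seeded at OD 0.01 in PMG+AL medium with 23 nL pinned compound. After 24 h at 30 °C and 99% humidity, viability was read by BacTiter-Glo luminescence.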
StopGo reporter = lowers the luciferase signal of an FMDV 2A StopGo reporter | human cells with a luciferase reporter of 2A StopGo recoding; control for the full effect not named in the record | Potency, µM (titrated, usually from 57.9 µM), for inactives: top-dose signal change, negative = less light | 410,000 compounds, 1.2% hits | AID 1159524; active = well fitted falling curve with a large enough effect; inconclusive = small, poorly fitted or top-dose-only effect; inactive = no such curve, though single readings can be large or run the other way; tested in HEK293T cells; further: on the % scale 0 is the no-effect control and ±100 the full control effect; nearly all actives have a fitted effect of over 45% in size; luciferase light after 4 h
SARS PLpro yeast = inhibitors of SARS-CoV papain-like protease in yeast; AID 485353; S. cerevisiae expressing SARS-CoV PLpro, growth rescue; control for the full effect not named in the record; 330,000 compounds, 0.19% hits; Potency, µM (doses to about 32.9 µM), for inactives: top-dose activity, positive = growth rescue; further: 0% is about no effect; nearly all actives have a fitted effect of over 55% in size; growth read by luminescence after 48 h
MARV entry inh = inhibitors of Marburg virus binding or cell entry; Marburg virus pseudotyped entry inhibition, cell reporter; control for the full effect not named in the record; about a third of the inactives were read at about 46 µM; Potency, µM (doses to about 37.8 µM), without a hit: top-dose activity change, negative = inhibition, usual class: inhibitors; 300,000 compounds, 1.8% hits; AID 540276; active = well fitted inhibition curve with a large enough effect; inconclusive = small, poorly fitted or top-dose-only effect, or effect the other way; inactive = flat fitted curve, though single readings scatter; tested in HEK293 cells; about a fifth of its hits are not listed in these tables; further: on the % scale 0 is the no-effect control and ±100 the full control effect; luciferase read-out
LASV entry inh = Lassa virus entry inhibition | Lassa virus pseudotype entry inhibition, cell reporter; control for the full effect not named in the record | Potency, µM (top dose mostly 37.9 µM), for the others: top-dose activity change, negative = inhibition, actives largely listed as inhibitors | 300,000 compounds, 1.2% hits; active means well fitted inhibition curve with a large enough effect; inconclusive means small, poorly fitted or top-dose-only effect, or effect the other way; inactive means flat fitted curve, though single readings scatter; tested in HEK293 cells; further: on the % scale 0 is the no-effect control and ±100 the full control effect; nearly all actives have a fitted effect of over 50% in size; luciferase read-out
Cruzain inh Det = cruzain (T. cruzi) inhibition with detergent; 200,000 compounds, 0.43% hits; purified cruzain, Z-FR-AMC fluorescence, 0.01% Triton; AID 1478; P25779; Potency, µM, without a hit: max response, negative = inhibition, most hits filed as inhibitors; active means well fitted curve in the direction sought with a large enough effect; inconclusive means small, poorly fitted or top-dose-only effect, or another doubt; inactive means no such curve, though single readings can be large; an effect the other way counts as inactive or inconclusive;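 further: plate controls were neutral wells for no effect and buffer without enzyme for full effect; nearly all actives have a fitted effect of over 40% in size; top concentration of the series not given in the record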
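Steps: dispense cruzain (1.5 nM final) in acetate buffer pH 5.5 with DTT and 0.01% Triton X-100; pin-transfer compounds; incubate 15 min RT; add Z-FR-AMC (2 uM final); read fluorescence every 30 s, using the 60 s intensity change.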
* hit, by the source's call; ? = inconclusive; . = no result given; & = joins results of further samples; [ ] = another dose, or the depositor's remark. Unless noted, the call rests on the fitted dose curve; in most records, active means well fitted rising curve with a large enough effect; inconclusive means small, poorly fitted or top-dose-only effect; inactive means no such curve, though single readings can be large or run the other way. Potency means the concentration at half of the fitted maximal effect. Random draw from the library (roughly 4.7% active in at least one column).

SMILES	Cruzain noTriton	NS1 function inh	RE007 growth inh	StopGo reporter	SARS PLpro yeast	MARV entry inh	LASV entry inh	Cruzain inh Det
CCN(C(=O)CSc1nnc(-c2ccncc2)n1Cc1ccccc1)C1CCS(=O)(=O)C1 (stereo unspecified)	.	8%	-8%	-5%	-2%	-6%[46.1 µM]	.	.
COc1ccccc1CC(NC(C)=O)C(=O)NC1CCN(C(=O)Nc2cccc(F)c2)CC1 (stereo unspecified)	.	-3%	-8%	-2%	2%	17%[46.1 µM]	.	.
Cc1csc(NC(=O)c2cc(C)oc2C)n1	1%	-11%	?	16%	-6%	?	-1%	1.9%
CCOc1cc(CNC(C)(C)CO)cc(Br)c1OCc1ccc(Cl)cc1Cl	3%	-119%	-11%	?	-7%	18µM*	?	-2.0%
Cc1ccc(-c2ccc(=O)n(Cc3cccc(Br)c3)n2)cc1	.	-7%	5%	7%	-6%	-22%[46.1 µM]	-23%[46.1 µM]	.
Cc1c(Cl)cccc1NC(=O)NCc1ccncc1	.	1%	-7%	21%	0%	.	.	.
NC(=O)c1ccc(NC(=O)c2cccn(Cc3ccccc3)c2=O)cc1	-5%	.	.	-3%	.	.	-14%[46.1 µM]	-3.5%
CCc1ccc(NC(=O)C/C(C)=N/NC(=O)COc2ccccc2C)cc1	.	0%	5%	-3%	-1%	7%[46.1 µM]	22%[46.1 µM]	.
CCc1nc2ccccc2c(C(=O)OCC(=O)NCCCN2CCCC2=O)c1C	13%	0%	-2%	-8%	-2%	3%	-12%	1.3%
Cc1ccc(C(=O)NC2CCN(C(=O)Nc3ccccc3)CC2)cc1	.	-1%	-18%	-11%	6%	6%[46.1 µM]	12%[46.1 µM]	.
COc1ccc(-c2nnc(SC(C)C(=O)Nc3nccs3)n2Cc2ccccc2)cc1OC (stereo unspecified)	?	9%	2%[3.69 µM]	?	10%	7%	-13%	-6.1%
O=c1oc2cc(OCCO)ccc2c2c1CCCC2	.	-29%	-7%	16%	-15%	.	.	.
CC(=O)N1N=C(c2cccs2)CC1c1cccs1 (stereo unspecified)	.	-1%	18%	-10%	0%	4%	0%[46.1 µM]	.
CC1CCN(CCCNC(=O)c2ccc3c(Cl)c4c(nc3c2)CCCC4)CC1	.	-2%	-18%	-26%	-4%	10µM*	?	.
Cc1ccc(N2CC(C(=O)Nc3nnc(SCC(=O)N4CCOCC4)s3)CC2=O)cc1 (stereo unspecified)	.	2%	13%	-7%	11%	29%	-22%	.
O=C(Nc1ccccc1C(=O)N/N=C/c1ccc(F)cc1)c1ccccc1Br	12%	4%	-10%	0%	-2%	1%	55%[14.3 µM]	-4.9%
Cc1ccc(C)c(S(=O)(=O)N2CCN(C(=O)CCNC(=O)c3ccc(Br)cc3)CC2)c1	.	.	6%	-10%	-1%	-27%	0%	.
CC(C)COc1ccc(CNC(=S)NCc2ccccc2)cc1	0%	-32%	-18%	.	-17%	?	-8%	-4.8%
O=C(c1ccc(S(=O)(=O)c2ccccc2Cl)c([N+](=O)[O-])c1)N1CCCCCC1	2%	-8%	12%	?	12%	?	-25%	0.0%
O=C1C2CCCN2C(c2cccnc2)N1c1ccc(Cl)cc1 (stereo unspecified)	7%	-30%	-15%	-15%	-17%	-8%	0%	0.4%
CCCCOc1c(Br)cc(CNCCCN2CCOCC2)cc1OC	.	17%	3%	-6%	-10%	?	?	.
CCCCNCCOCCOc1ccc(C)cc1[N+](=O)[O-]	-4%	-3%	-18%	-2%	-1%	?	?	3.1%
CCN(CC(=O)Nc1c(F)cccc1F)C(=O)c1cnccn1	.	.	0%	-4%	-6%	2%	-13%	.
COc1cc(N/N=C/c2ccc(N(C)C)cc2)ncn1	.	0%	-8%	-19%	0%	.	.	.
O=C(NC1CCCCC1)c1ccc(Br)o1	-3%	-3%	-5%	8%	4%	-6%[46.1 µM]	-17%	3.1%
(cont.)
SMILES	Cruzain noTriton	NS1 function inh	RE007 growth inh	StopGo reporter	SARS PLpro yeast	MARV entry inh	LASV entry inh	Cruzain inh Det
COc1cc(NC(=S)NC(C)(C)C)c(OC)cc1Cl	.	-12%	-14%	-26%	-2%	.	.	.
Cc1ccc(S(=O)(=O)NC(=O)c2cc(C)n(-c3ccccc3)c2C)cc1	4%	23%	7%	14%	-49%	7%	.	-5.2%
CCOc1ccc2oc(C(=O)N(CC)CC(=O)Nc3ccc(NC(C)=O)cc3)c(C)c2c1	.	.	16%	26%	-5%	?	-17%	.
CCCCCCC(=O)N/N=C/c1c(O)n(CCc2ccccc2)c(=O)[nH]c1=O	.	-3%	-2%	-6%	0%	?	?	.
Cc1cccc(-n2c(CNC(=O)c3cccc(F)c3)nnc2SCC(=O)Nc2ccccc2F)c1	?	.	.	0%	.	?	?	0.1%
N#Cc1ccccc1N=Cc1ccc(Br)cc1	3%	11%	8%	6%	-11%	-10%	-7%	-1.4%
Nc1nnc(-c2ccc(Cl)cc2)o1	.	-6%	-7%	-3%	2%	.	.	.
Cc1cccc2c3c([nH]c12)CCN(C)C3	.	-1%	8%	-6%	13%	.	.	.
COc1ccc(NC(=O)CN(C)C(C)C(=O)NC(=O)NC2CCCCC2)cc1 (stereo unspecified)	.	-9%	0%	-3%	5%	10%	-23%	.
CCC(C)NC(=O)Cn1cccc1C(=O)c1ccccc1 (stereo unspecified)	-13%	3%	-6%	9%	2%	?	?	-2.4%
O=C(Nc1nnc(-c2ccc3c(c2)CCCC3)o1)C1COc2ccccc2O1 (stereo unspecified)	-19%	-134%	-3%	-5%	14%	.	.	-12%
COc1ccc(Cc2nc3ccc(C(=O)N4CCOCC4)cc3o2)cc1	.	1%	?	80%[activator]	3%	-11%	-20%	.
CCCCNC(=S)N/N=C/C1=CCC2CC1C2(C)C (stereo unspecified)	-5%	-34%	-18%	?	-26%	?	?	-8.0%
COC(=O)Cc1[nH]n(-c2nc3ccccc3s2)c(=O)c1C(C)=Nc1ccc(Cl)cc1	.	14%	?	1µM*	-6%	.	.	.
CCCn1c(SCC(=O)c2ccc3c(c2)OCCO3)nc2c1c(=O)n(C)c(=O)n2C	?	-14%	1%	.	4%	-4%	1%	-1.0%
O=C(CSc1nnc2ccccn12)NNC(=O)c1ccc(Cl)cc1	.	3%	4%	-3%	1%	14%[46.1 µM]	?	.
Cc1ccc(NC(=O)CC(NCC2CCCO2)C(=O)O)cc1C (stereo unspecified)	.	.	-1%	-2%	3%	?	-1%[46.1 µM]	.
COc1cc(CNC(C)c2ccccc2)cc(Br)c1OCc1ccc(F)cc1 (stereo unspecified)	.	-39%	-4%	-30%	-5%	3.5µM*	?	.
CN(C)/C=N/c1ncc(C(=O)OC(C)(C)C)s1	.	.	-1%	48%[activator]	1%	29%[46.1 µM]	23%	.
COc1ccccc1C(=O)NCCC(=O)N1CCN(C(=O)c2ccco2)CC1	.	.	-15%	0%	-1%	-5%	1%	.
CCOC(=O)N1CCN(c2nc(-c3ccco3)cc(C(F)(F)F)n2)CC1	?	-25%	-20%	?	-3%	7%	2%	-9.2%
CN(C)S(=O)(=O)c1ccc(C(=O)Nc2ccccc2OC(F)(F)C(F)F)cc1	-3%	2%	4%	-14%	-3%	-1%	-5%	2.0%
CC(C)(C)NC(=O)CSc1nnc(-c2ccccc2)c(-c2ccccc2)n1	.	-8%	-19%	-22%	0%	.	.	.
CCCNC(=O)C(NS(=O)(=O)c1cccc2nsnc12)c1ccccc1 (stereo unspecified)	-2%	-8%	5%	30%[activator]	3%	0%	-4%	6.5%
Cc1ccc(-c2nc(CN3CCCCC3CCN3CCCC3=O)c(C)o2)o1 (stereo unspecified)	.	2%	-8%	-11%	0%	?	20%	.
(list continues)
SMILES	Cruzain noTriton	NS1 function inh	RE007 growth inh	StopGo reporter	SARS PLpro yeast	MARV entry inh	LASV entry inh	Cruzain inh Det
Oc1c(C(c2ccccc2Cl)N2CCN(Cc3ccccc3)CC2)sc2nc(-c3ccco3)nn12 (stereo unspecified)	?	.	.	-5%	.	.	1%[46.1 µM]	-6.9%
Cc1ccc(CNC(=O)C(=O)Nc2c3c(nn2-c2ccccc2)CSC3)cc1	?	.	.	-15%	.	.	-20%[46.1 µM]	0.4%
Cc1cc(C(=O)CCl)c(C)n1-c1cccc([N+](=O)[O-])c1	.	.	-16%	11µM*	?	10µM*	?	.
CCOC(=O)c1cccc(NC(=O)C2(S(=O)(=O)c3ccc(C)cc3)CC2)c1	2%&1%	-3%	2%	?	7%	?	?	-6.3%&-4.1%
O=C(c1ccc(Br)c([N+](=O)[O-])c1)N1CCN(Cc2ccccc2)CC1	.	12%	-24%	-27%	5%	.	.	.
COc1cc(C(=O)NNC(=O)c2cc(C)[nH]n2)cc(OC)c1OC	.	3%	3%	-2%	1%	-7%[46.1 µM]	11%	.
c1ccc2sc(NN=C3CCCC3)nc2c1	.	.	-10%	-37%	-4%	?	?	.
Fc1ccc(Nc2nc(-c3ccncc3)cs2)cc1	.	0%	-14%	11%	-9%	-61%	12%	.
CCCC(=O)N(c1ccccc1)C1C=CS(=O)(=O)C1 (stereo unspecified)	.	.	21%	0%	1%	4%[46.1 µM]	?	.

Screening data: PubChem BioAssay, National Center for Advancing Translational Sciences (NCATS)
